Six1-Eya2 blk: blocks human Six1 binding to Eya2; activity change, % (no concentration beside the values); AlphaScreen GST-Six1/His-Eya2 binding, biochemical; active compounds read low; control for the full effect not named in the record; Q15475+O00167; 360,000 tested, 0.56% active; in the data active = activity change below about -65%; inconclusive = about -30% to -65%; inactive = above about -30%; also: % is scaled to controls: 0 for no effect and ±100 for the full control effect
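Homogeneous AlphaScreen proximity assay pairing GST-Six1 with His-tagged Eya2 (added as 5X mix: 250 nM and 500 nM) in 50 mM Tris pH 8.0, 300 mM NaCl, 1 mM TCEP. Glutathione donor and nickel acceptor beads; 1 h, 37 °C, dark.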
TRPV1 potentiator: enhances activation of the human vanilloid receptor TRPV1; TRPV1-expressing cells, Fluo-8 calcium influx, capsaicin EC20 potentiation; host cell line not named in the record; control for the full effect not named in the record; potentiation, % at 8.33 µM; 320,000 tested, 0.02% active; AID 540277; active means potentiation above 80%; inconclusive means 30% to 80%; inactive means below 30%; also: 0% is about no effect
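Fluo-8 calcium influx in TRPV1-expressing cells, kinetic read (ex 480/em 520 nm). Compound added and read 3 min for agonist activity, followed by capsaicin at EC20 final and 2 min further read for enhancement.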
Sfp PPTase inh: inhibitors of Bacillus subtilis Sfp phosphopantetheinyl transferase; Biochemical Sfp PPTase activity, qHTS; Potency, µM, for inactives: max response, negative = inhibition, usual class: inhibitors; 310,000 tested, 3.5% active; AID 1490; active = well fitted inhibition curve with a large enough effect; inconclusive = small, poorly fitted or top-dose-only effect, or another doubt; inactive = no such curve, though single readings can be large or run the other way;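 also: the enzyme is Sfp with the accession as filed and its product quenches rhodamine fluorescence; potency is read from the fitted curve at half-maximal effect; 0% = enzyme reaction without inhibitor and -100% = no enzyme wells; top concentration of the series not given in the record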
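Step 1, compound plus 15 nM Sfp-PPTase, 15 min, room temperature. Step 2, add rhodamine-CoA (5 uM) and BHQ-2-YbbR (12.5 uM). Step 3, read 525/598 nm fluorescence at 0 and 30 min.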
D2 PAM: human D2 receptor positive allosteric modulation; DiscoveRx D2 beta-arrestin cells, luminescence, 90 min; 100% = 57 uM dopamine signal; 360,000 tested, 0.23% active; AID 624464; P14416; potentiation, % (test concentration not listed); active = potentiation of 50% or more; inconclusive = 30% to 50%; inactive = 30% or less;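 also: compound concentration not given in the record; tested on top of an EC20 dose of dopamine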
Target sequence (P14416 whole entry, looked up): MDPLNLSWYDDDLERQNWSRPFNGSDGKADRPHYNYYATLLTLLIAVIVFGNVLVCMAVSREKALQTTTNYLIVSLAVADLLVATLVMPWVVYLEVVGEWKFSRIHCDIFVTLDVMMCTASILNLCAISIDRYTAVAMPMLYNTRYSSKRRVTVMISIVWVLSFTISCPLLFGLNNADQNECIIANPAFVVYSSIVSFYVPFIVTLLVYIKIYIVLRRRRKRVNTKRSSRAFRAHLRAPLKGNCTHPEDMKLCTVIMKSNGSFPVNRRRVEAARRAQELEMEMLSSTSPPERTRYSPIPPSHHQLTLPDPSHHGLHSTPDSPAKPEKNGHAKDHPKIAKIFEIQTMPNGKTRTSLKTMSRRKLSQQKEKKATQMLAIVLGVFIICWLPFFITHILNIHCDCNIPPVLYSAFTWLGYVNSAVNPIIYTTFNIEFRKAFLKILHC
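PathHunter beta-arrestin assay in DiscoveRx D2 cells. Compounds were added with an EC20 of dopamine (50 nM final) for 90 min at 37 deg C. Luminescence was read 1 h after detection reagent, with 57 uM dopamine as the EC100 control.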
CtBP-E1A inh: inhibitors of CtBP/E1A interaction; AID 651724; 340,000 tested, 0.49% active; activity change, % (concentration not given with the values); AlphaScreen GST-E1A/His-CtBP binding, 1536-well; active compounds read low; control for the full effect not named in the record; in the data active means activity change below about -65%; inconclusive means about -30% to -65%; inactive means above about -30%; also: % is scaled to controls: 0 for no effect and ±100 for the full control effect
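Steps: dispense buffer (Tris pH 8.0, NaCl 300 mM, TCEP 1 mM, BSA, Tween 20); add 5X protein mix (GST-E1A, His-CtBP, 125 nM each); pin 23 nL compound; 2 h at 37 °C, dark; add 5X beads (50 ug/mL); 1 h; read.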
D2 ag: human D2 receptor agonism in beta-arrestin assay; P14416; DiscoveRx PathHunter D2 beta-arrestin, luminescence, 90 min; 100% = 57 uM dopamine signal; activation, % (concentration not given with the values); 360,000 tested, 0.084% active; AID 624465; in the data active = activation above about 40%; inconclusive = about 15% to 40%; inactive = below about 15%; also: compound concentration not given in the record; the text of the record calls up to 30% inactive
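DiscoveRx PathHunter D2 beta-arrestin cells (2,100/well) attached overnight, then compound-stimulated 90 min at 37 C in HBSS/10 mM HEPES/0.1% Tween-20 buffer; beta-galactosidase complementation read by luminescence after 1 h at ambient temperature. Dopamine 57 uM final (EC100) as control.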
PINK1 expr mod: changes PINK1 expression; PINK1 immunofluorescence, high-content cytometry, 24 h; Potency, µM (doses to about 76.6 µM), without a hit: top-dose activation (PINK1 increase), most hits filed as activators; 410,000 tested, 0.2% active; AID 624263; active = well fitted activation curve with a large enough effect; inconclusive = small, poorly fitted or top-dose-only effect; inactive = flat fitted curve, though single readings scatter; cell line not stated here;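 also: potency is read from the fitted curve at half-maximal effect; % of control where 0% means no effect; nearly all actives have a fitted effect of over 65% in size; a mitochondrial uncoupler was the plate control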
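PINK1 protein level read as immunofluorescence by microplate cytometer in a fixed, stained stable cell line after 24 h exposure to five compound concentrations, with CCCP as control.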
* marks the source's active call; other numbers are inactive results; ? = inconclusive; / = no result given; & = joins results of further samples; [ ] = dose if it differs, or a comment. Compounds were not picked by outcome; about 3.7% have a hit in one of these screens.

SMILES	Six1-Eya2 blk	TRPV1 potentiator	Sfp PPTase inh	D2 PAM	CtBP-E1A inh	D2 ag	PINK1 expr mod
COc1ccc(OC)c(CN2C(=O)c3ccccc3C2C(=O)NCc2cccnc2)c1 (stereo not given)	3	22	25%	-3	5	-3.3	0.2%
C[C@H](NS(=O)(=O)c1ccc2c(c1)OCCCO2)C(=O)N1CCN(Cc2ccccc2)CC1	-4	3	/	-9	5	-1.6	1.0%
CN(C(=O)COC(=O)/C=C/c1ccc2ccccc2n1)c1c(N)n(Cc2ccccc2)c(=O)[nH]c1=O	-2	2	/	-6	3	1.2	1.7%
N#CCNc1ccc([N+](=O)[O-])cc1C#N	-3	0	-10%	-15	/	-2.4	1.4%
C=CCN1CC(=O)N2C(c3ccccc3)c3[nH]c4ccccc4c3C[C@H]2C1=O (stereo not given in full)	-11	21	-8%	-11	/	2.3	1.0%
CCOCCCn1c(SCC(=O)NCc2ccco2)nc2c(sc3ccccc32)c1=O	0	4	22µM*	-18	0	-3.1	/
CCCN1CCC(=O)N([C@H](COc2ccccc2)Cc2ccccc2)CC1	0	4	18%	-19	-2	-1.3	1.8%
CCc1sc(C(=O)NCc2ccco2)cc1C	-2	10	19%	-6	1	-6.1	-0.6%
Nc1cc(-c2ccccc2)ccc1O	-6	3&-3	-15%&-5%	98*	-4	?	-1.8%
Cc1cc(C(=O)N2CCCC(N3CCN(c4cccc(C(F)(F)F)c4)CC3)C2)c(C)o1 (stereo not given)	-12	17	17%	-11	-3	-0.4	1.7%
Cn1ncc2c(=O)[nH]nnc21	1	/	/	-4	0	-0.3	1.4%
O=C(NC1CC1)c1ccc(-c2ccccc2)cc1	2	10	9%	-18	4	-0.6	0.8%
Cn1ncc(Cl)c1C(=O)Nc1ccc2c(c1)OCO2	-5	4	11%	-1	0	1.9	0.1%
NC(=O)C1(N2CCCCC2)CCN(C(=O)NC2CCCCC2)CC1	-5	-6	14%	-9	5	1.2	0.6%
Cc1ccc(C(=O)C2COC(=O)C2)cc1 (stereo not given)	-3	-9	23%	-9	4	-2.4	12%[38.3 µM]
CCOC(=O)NC(NCC(O)c1ccccc1)(C(F)(F)F)C(F)(F)F (stereo not given)	7	-9	17%	-6	-3	3.2	-1.5%
S=C(NCC1CCCO1)N1CCN(c2nc(-c3ccc(Cl)cc3)cs2)CC1 (stereo not given)	-10	-2	10%	-11	-14	-3.0	1.1%
CCN1CCN(CCNC(=O)c2ccc3nc(-c4cccc(C)c4)c(-c4cccc(C)c4)nc3c2)CC1	0	15	?	-7	3	-2.7	0.1%
Cc1cc(Br)cn2c(Cc3cccc(Cl)c3)c(-c3ccco3)nc12	-24	/	/	/	-17	/	2.4%
COc1ncnc2c1ncn2CCCNCc1ccccn1	-25	/	/	6	?	-9.9	0.3%
CCOC(=O)c1ccccc1NC(=O)CSc1ncc(C(=O)OCC)c(N)n1	-3	-3	-4%	1	3	0.0	-1.0%
CCNC(=O)c1cc2c(c(-c3cccc(-c4cccc(C(=O)N(C)C)c4)c3)n1)[C@@H](CCO)N(S(=O)C(C)(C)C)C2 (stereo not given in full)	-16	/	/	-1	-8	1.6	4.5%
C[C@@H]1COc2cc(N3CC[C@H](O)C3)ccc2S(=O)(=O)N1	9	/	/	/	-2	/	-0.4%
Cc1ccc([C@@H]2CC(=O)[C@@H]3CN(S(=O)(=O)c4ccc(C)cc4)[C@H](c4ccc(Cl)cc4)C[C@@H]3N2S(=O)(=O)c2ccc(C)cc2)cc1	1	/	/	6	0	-5.6	1.9%
COCCn1nnnc1C(c1ccc(Cl)cc1)N1CCSCC1 (stereo not given)	3	3	-6%	-10	3	-0.3	/
O=C(CN1C(=O)COc2ccc(Cl)cc21)NCC1CCCO1 (stereo not given)	7	-1	15%	-9	4	-2.4	-1.6%
O=C(NCc1cccs1)c1csc2ccccc12	3	-3	9%	-13	6	-2.0	15%[38.3 µM]
COCCN(C(=O)CCC(=O)Nc1ccccn1)C(C(=O)NC(C)(C)C)c1ccc(OC)cc1 (stereo not given)	-5	1	12%	-11	16	-3.4	0.0%
O=C(Nc1ncccn1)C12CC3CC(CC(C3)C1)C2	10	-7	2%	-2	-7	-2.4	-1.3%
COc1ccccc1-c1nc(SCC(=O)Nc2cc(C)on2)c2c(=O)n(C)c(=O)n(C)c2n1	3	0	12%	-27	7	3.8	11%
COc1ccc(OC)c(NC(=O)c2ccccc2N(C)S(=O)(=O)c2ccc(C)cc2)c1	-6	9	3%	-3	-17	-3.4	1.2%
O=c1cc(-c2ccc(Cl)cc2)[nH][nH]1	-1	6	6%	-20	8	-5.2	1.6%[38.3 µM]
CCOc1ccc(NC(=O)c2ccccc2OCC(=O)c2ccc(C)cc2)cc1	3	-3	4%	2	5	-2.1	11%
COc1ccc(C)cc1NC(=O)C1COc2ccccc2O1 (stereo not given)	8	-3	-2%	-4	12	-0.9	0.7%
CCCC(C(=O)N(C)CC(=O)Nc1ccc(N2CCOCC2)cc1)c1ccccc1 (stereo not given)	-9	-8	/	9	7	-3.0	-1.5%
COc1ccccc1S(=O)(=O)NCc1ccc(C(=O)NC2CCC(O)CC2)cc1 (stereo not given)	12	-4	/	6	-10	2.1	0.2%
CC1=C(C(=O)N2CCOCC2)CC(CC(=O)NC2CCCCC2)C(=O)N1Cc1ccccc1 (stereo not given)	2	/	/	8	0	-7.0	-0.1%
Cc1ccc(S(=O)(=O)NCC(=O)N2CCN(c3ccc(F)cc3)CC2)cc1	0	8	6%	-15	3	-7.4	-2.3%
COc1cccc(NC(=O)C2(C)CCN2Cc2ccccc2OC(F)F)c1 (stereo not given)	-4	/	/	-7	5	0.5	0.6%
NC(=O)COc1ccccc1C1=NO[C@@](CC(=O)O)(C(=O)Nc2ccc3c(c2)OCCO3)C1	-8	27	-5%	-10	-12	5.5	-3.4%
O=C(O)CCC(=O)OCC1CCCCC1	3	-1	27%	16	9	0.4	1.8%
CCc1noc(C)c1C(=O)Nc1nc(-c2ccc(OC)cc2OC)cs1	-12	8	/	-1	-6	-2.2	18%
CC(=O)Nc1cccc(/C(C)=N/NC(=S)NC(C)C)c1	-9	11	3%	-2	-1	1.4	-0.3%
O=C(CC1N=C2c3ccccc3N=C(SCc3ccccc3Cl)N2C1=O)NCc1ccco1 (stereo not given)	-7	6	-24%	-17	-7	-3.5	6.5%
Cc1nc2sc(C(c3ccccc3)N3CCC(O)CC3)c(O)n2n1 (stereo not given)	-2	-4	22%	-13	-2	-0.9	-1.1%
NC(=O)CCn1c(=O)oc2ccccc21	1	6	5%	7	2	-4.5	-0.8%
CCn1cnc2cc(NCc3ccncc3)ccc21	-1	-1	-3%	0	6	-1.2	/
NC(=O)CSc1nnc(Cn2c(=O)sc3ccccc32)n1CCc1ccccc1	5	-1	18%	-6	-13	-3.0	1.6%
O=C(C(=O)c1ccc(O)cc1)c1ccccc1	3	6	-1%	0	/	2.3	2.1%
Cc1ccccc1Nc1nc(N)nc(COC(=O)c2ccc3c(c2)OCCO3)n1	-11	/	/	4	-7	3.2	1.1%

2 compounds from above with just D2 PAM and D2 ag:
compound | D2 PAM | D2 ag
Cc1ccccc1Nc1nc(N)nc(COC(=O)c2ccc3c(c2)OCCO3)n1 | 4 | 3.2
O=C(O)CCC(=O)OCC1CCCCC1 | 16 | 0.4

(next part)
SMILES	Six1-Eya2 blk	TRPV1 potentiator	Sfp PPTase inh	D2 PAM	CtBP-E1A inh	D2 ag	PINK1 expr mod
Cc1ccc(NC(=O)C(C)Sc2nnc3n2CCCCC3)cc1S(=O)(=O)N1CCOCC1 (stereo not given)	-5	/	/	-1	0	-4.6	0.1%
CN(CC(=O)Nc1ccc(Cl)cc1)C(=O)c1sccc1-c1ccccc1	1	-4	/	1	5	-0.1	0.1%
NC(=O)C1CCN(c2nc(C3CC3)nc3c2nnn3Cc2ccccc2)CC1	-2	-5	-12%	-6	-4	0.1	7.5%[38.3 µM]
CC(C)CN(C(=O)COC(=O)Cc1cccc2ccccc12)c1c(N)n(Cc2ccccc2)c(=O)[nH]c1=O	-11	5	/	12	-6	-1.5	22%
CC1CCCN(S(=O)(=O)c2cccc3nonc23)C1 (stereo not given)	-5	3	15%	5	-6	-8.9	0.2%
Cc1cc2oc(=O)cc(CN(C)Cc3ccccc3)c2cc1C	0	/	/	-4	8	-2.3	4.4%
CCCSc1ccc(-c2nn(-c3ccccc3)cc2/C=C(/C#N)C(=O)N2CCOCC2)cc1	8	22	-5%	-8	-2	-1.3	11%
Cc1ccc(C)c(NCC(=O)NNC(=S)Nc2ccccc2)c1	-1	5	13%	-11	-1	-0.2	2.7%
CC(=O)Nc1ncc2c(n1)CC(c1ccco1)CC2=O (stereo not given)	2	-18	-10%	7	2	-2.0	-0.1%
Nc1c(C(=O)Nc2ccc(F)cc2)nnn1-c1cccc(C(F)(F)F)c1	-12	7	8%	-1	-12	-2.7	6.8%
Cc1ccc(C(=O)CSc2nnc3n2CCCCC3)s1	-1	-2	/	0	6	1.4	1.8%
O=C(NNC(=O)c1ccc(NC(=O)C2CC2)cc1)c1ccc(F)cc1	5	19	9%	12	6	-1.3	5.0%
Fc1ccc2c(c1)C(c1ccncc1)=NNC(c1ccccc1)=N2	-12	-2	-10%	0	-8	7.8	-0.8%
O=C(CN1C(=O)CCC1=O)NCC12CC3CC(CC(C3)C1)C2	2	23	-2%	-8	3	-4.0	-2.5%
Cn1c(C(=O)Nc2ccc3c(c2)OCO3)cc2sccc21	-28	-19	-5%	-27	-22	-3.4	1.1%
S=C(NCCc1ccccn1)NC1CC2CCC1C2 (stereo not given)	0	3	6%	-18	-5	3.6	1.3%
CCCCN(c1ccccc1)S(=O)(=O)c1cccc(C(=O)O)c1	-2	-9	15%	14	-4	-0.7	-0.3%
O=c1c2cc(NC(=S)NC3CCN(Cc4ccccc4)CC3)ccc2nc2n1CCCCC2	-11	-3	22%	-7	-13	1.2	0.2%
Cc1cc(Cl)c2oc(C(=O)NCCC3CCCCO3)c(C)c2c1 (stereo not given)	-5	-20	-24%	-6	12	-3.9	0.7%

Filtered by structure: the compounds so far with a cyano group.
SMILES	Six1-Eya2 blk	TRPV1 potentiator	Sfp PPTase inh	D2 PAM	CtBP-E1A inh	D2 ag	PINK1 expr mod
N#CCNc1ccc([N+](=O)[O-])cc1C#N	-3	0	-10%	-15	/	-2.4	1.4%
CCCSc1ccc(-c2nn(-c3ccccc3)cc2/C=C(/C#N)C(=O)N2CCOCC2)cc1	8	22	-5%	-8	-2	-1.3	11%

Source: PubChem
